Screens deposited in PubChem by National Center for Advancing Translational Sciences (NCATS).
miR-21 FLuc = miR-21 reporter, rising signal. HeLa miR-21 FLuc reporter, luciferase, 48 h. 340,000 tested, under 10 active. Potency, µM (doses to about 38.3 µM), inactives show at the top dose reporter change, positive = more light; active = well fitted rising curve with a large enough effect; inconclusive = small, poorly fitted or top-dose-only effect; inactive = no such curve, though single readings can be large or run the other way;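 further: % of control where 0% means no effect; miR-21 action dims this reporter so a rising signal means less miR-21 action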
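Using DMEM plus 10% FBS, HeLa miR-21-FLuc cells are incubated with test compounds (final up to about 40uM) for 48 hours; firefly luciferase signal is then imaged following reagent-mediated lysis.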
Starred values were filed as active, the others as inactive; ? = inconclusive. The list is partial; the hit share may differ from the screen's.

The opening 3 entries, ahead of the listing:
SMILES	miR-21 FLuc
Cc1cc(C)cc(NS(=O)(=O)c2ccc(-n3cccn3)cc2)c1	19.0%
C#CCOc1ccc(-c2nnc(Nc3cccc(C)c3)c3ccccc23)cc1	?
Nc1c(C(=O)Nc2ccccc2)sc2nc3c(cc12)CN(Cc1ccccc1)CC3	3.9%

Main list, from the first entry:
SMILES	miR-21 FLuc
Cc1cc(C)cc(NS(=O)(=O)c2ccc(-n3cccn3)cc2)c1	19.0%
C#CCOc1ccc(-c2nnc(Nc3cccc(C)c3)c3ccccc23)cc1	?
Nc1c(C(=O)Nc2ccccc2)sc2nc3c(cc12)CN(Cc1ccccc1)CC3	3.9%
COc1ccc(-c2cc(C(=O)Oc3ccccc3)c3cc(C)ccc3n2)cc1	-9.2%
COc1ccc(-n2ncc(C(=O)N3CCN(C4CCCCC4)CC3)c2C2CCN(C(=O)OC(C)(C)C)CC2)cc1	2.0%
COc1ccc(NC(=O)Cn2c(=O)n(-c3ccc(OC)cc3)c(=O)c3ccc(C(=O)NCc4ccc(C)cc4)cc32)cc1	-14.9%
COc1ccc(OCC(=O)NNC(=S)NC(=O)C2CCCCC2)cc1	-0.7%
Cc1nc2sc(C(N)=O)c(N)c2c(-c2ccc(Br)cc2)c1C(=O)Nc1ccc(Cl)cc1	?
CCOC(=O)c1c(Nc2ccc(O)cc2)nnc(-c2ccccc2)c1-c1ccccc1	4.0%
CC(C)Oc1ccc(CNC(=O)c2ccc3nc(SCc4ccc(F)cc4)n(C)c3c2)cc1	-2.8%
COc1ccc(-c2c(C)c3ccc(O)c(CN4CCCCC4C)c3oc2=O)cc1OC (stereo not drawn)	0.2%
CC(=O)Nc1ccc(NC(=O)CN2C(=O)CN(C)C(=O)c3ccccc32)cc1	2.8%
CCCc1nn2c(=O)cc(COC(=O)c3ccccc3NC(=O)c3cccs3)nc2s1	2.7%
Cc1oc2ccc(O)c(CN3CCC(C)CC3)c2c1C(=O)Nc1ccccc1	16.8%
Cc1ccc(NC(=O)c2cc(S(=O)(=O)N3CCC(C)CC3)cn2C)cc1Cl	-4.1%
Cc1ccc(CNC(=O)c2nn(C)c3c2CSc2ccc(C)cc2-3)cc1	1.3%
CCOC(=O)c1c(Nc2ccc(OCC)cc2)nnc(-c2ccccc2)c1-c1ccccc1	?
O=C(CSc1cn(CC(=O)N2CCCCC2)c2ccccc12)NCc1ccc(F)cc1	3.0%
CCOC(=O)c1c(C)oc2ccc(N(C(=O)Oc3ccccc3)S(=O)(=O)c3ccc(CC)cc3)cc12	21.3%
CC1=Nc2cc(C(=O)NCCc3ccc(Cl)cc3)ccc2Sc2c(C)ccc(C)c21	?
Cc1cc(C)c(NC(=O)CN2C(=O)C3(SCC(=O)N3c3ccc(F)cc3)c3ccccc32)c(C)c1 (stereo not drawn)	11.3%
Cc1ccccc1CNC(=O)c1ccc(Cn2c(SCc3cccc(F)c3)nc3cccnc32)cc1	-6.8%
COc1ccc(NC(=O)C2CCN(C3=NS(=O)(=O)C(c4ccc(C)c(C)c4)=C3C)CC2)c(OC)c1	-6.9%
COc1ccccc1CSc1nc2n(n1)C(c1ccccc1)C(C(=O)Nc1ccc(C)cc1)=C(C)N2 (stereo not drawn)	-0.1%
COc1ccc(CCNC(=O)Cn2nc(C)c3c(C)n(-c4ccc(C)cc4)nc3c2=O)c(OC)c1	29.0%
Remaining list, next part:
SMILES	miR-21 FLuc
Cc1ccc(C)c(N2CCN(C(=O)CCc3c(C)nn(-c4ccc(N5CCCC5)nn4)c3C)CC2)c1	20.9%
CCOc1ccc(NC(=O)/C(C#N)=C\c2ccc(-c3ccc(Cl)cc3)o2)cc1	-1.8%
CS(=O)(=O)N1CCCc2cc(C(=O)Nc3cccc(C(F)(F)F)c3)ccc21	?
COc1ccc(Cl)cc1NC(=O)NCCc1c(C)nn(C)c1C	-11.4%
Cc1ccc(-c2nc3ncccc3o2)cc1NC(=O)COc1ccc(C(C)C)cc1	?
Cc1c(CC(=O)N[C@@H](CCCNC(N)=O)C(=O)O)c(=O)oc2cc3oc4c(c3cc12)CCCC4	-4.7%
Cc1cccc(NC(=O)C(=O)NCC(c2ccc3c(c2)OCO3)N2CCN(C)CC2)c1C (stereo not drawn)	-3.6%
CCOc1ccc(-c2c(C)nn3c(-c4ccccc4)c(C(=O)NCCOC)cnc23)cc1OCC	25.9%
Cc1cccc(NC(=O)Nc2cccs2)c1C	-18.3%
Cc1ccc(CNC(=O)c2ccc3c(c2)CCN3S(=O)(=O)c2ccccc2)cc1	-4.0%
CCC(=O)C1=C(c2ccc(F)cc2)N(C(=O)CC)n2c(nnc2C2CCCCC2)S1	6.0%
CC1CCCN(C(=O)c2cc3c(=O)n(C)c4ccccc4c3s2)C1 (stereo not drawn)	-6.7%
COc1ccc(C2C=C(c3ccccc3)Nc3nc(NC(=O)/C=C/c4ccc(Cl)cc4)nn32)cc1 (stereo not drawn)	-19.2%
CN(Cc1ccccc1)C(=O)CSc1c2c(nc3ccc(Cl)cc13)CCCC2	?
CCN(C(=O)Cn1cnc2sc(C)c(S(=O)(=O)N3CCN(c4ncccn4)CC3)c2c1=O)c1ccccc1F	-1.5%
Cc1ccc(Cn2cc(CCC(=O)NCC(C)c3ccccc3)c3ccccc32)cc1 (stereo not drawn)	?
CCOc1ccc(-c2nc(CNC(=O)Nc3ccccc3)c(C)o2)cc1	-15.9%
CCOC(=O)c1sc2ncn(CC(=O)Nc3cc(C)cc(C)c3)c(=O)c2c1C	0.0%
CCOc1ccccc1NC(=O)CN(CCc1ccccc1)S(=O)(=O)c1ccc(C)cc1	5.5%
Cc1ccc(CNC(=O)c2ccc(NC(=O)c3nsc4ccccc34)cc2)cc1	-70.3%
CCc1ccc(NC(=O)C2CCCN(S(=O)(=O)c3ccc4c(c3)oc(=O)n4C)C2)cc1 (stereo not drawn)	-0.1%
COc1ccc(OC)c(CNC(=O)c2ccc(NC(=O)c3nsc4ccccc34)cc2)c1	-29.4%
Cc1ccc(NC(=O)CSc2nnc3scc(-c4ccccc4)n23)cc1	-3.2%
Cc1cc(C)cc(NC(=O)Cn2cc(S(=O)(=O)NC(C)(C)C)c(S(=O)(=O)NC(C)(C)C)c2)c1	18.8%
Cc1cc(C)c(Cn2c3ccccc3c3cnn(CC(=O)NCc4ccc(Cl)cc4)c(=O)c32)c(C)c1	-2.1%
Next section.
SMILES	miR-21 FLuc
Cc1cc(=O)[nH]c2nnc(SCC(N)=O)n12	0.1%
CC(C)CC(=O)N(Cc1ccccc1)S(=O)(=O)c1ccc2c(c1)oc(=O)n2C	-2.0%
COc1cc(-c2nc(SCC(=O)Nc3ccc(C)cc3)c(-c3ccc(F)cc3)[nH]2)cc(OC)c1OC	?
O=C(CSc1nnc(CNC(=O)c2ccccc2F)n1-c1ccccc1)Nc1ccccc1F	0.5%
COCCCNC(=O)c1cc2n(n1)CCCN(Cc1ccc(C)cc1)C2=O	-6.0%
CN(C)c1oc(/C=C/c2ccc(F)cc2)nc1C#N	-57.2%
COc1cc(OC)cc(C(=O)Nc2c(C(=O)Nc3ccc(F)cc3)oc3ccccc23)c1	12.8%
CCN1CCN(C(c2ccccc2)c2sc3nc(-c4ccco4)nn3c2O)CC1 (stereo not drawn)	-0.6%
CCN(CCCNC(=O)c1cc2c(=O)n(CC)c3ccccc3c2s1)c1ccccc1	10.2%
O=C(Cn1c(=O)n(Cc2ccc(C(=O)NCc3ccccc3Cl)cc2)c(=O)c2ccccc21)Nc1ccc(F)c(Cl)c1	-3.5%
Cc1cc(C)c(S(=O)(=O)NCC(c2ccc(N(C)C)cc2)N2CCc3ccccc32)c(C)c1 (stereo not drawn)	-6.5%
Cc1nnc(NC(=O)CSCc2cc(=O)c3cc(Cl)ccc3[nH]2)s1	-2.1%
Clc1ccc2nc(-c3cccs3)c(Nc3ccc4c(c3)OCCO4)n2c1	-13.7%
Cc1cc(-c2ccc(S(=O)(=O)Nc3ccccc3F)s2)on1	-0.8%
COC(=O)c1ccc(NC(=O)CCc2c(C)nc3c(c2C)c(=O)n(C)c(=O)n3C)cc1	3.8%
CCc1ccc(NC(=O)c2ccc3c(c2)N(Cc2ccc(C)cc2)CCS3)cc1	-40.0%
COc1ccc(C(C(=O)NCc2ccccc2)N(C(=O)Cn2nnc3ccccc32)c2cccc(OC)c2)cc1 (stereo not drawn)	1.0%
CC1CCN(S(=O)(=O)c2cc(C(=O)NCc3ccc(F)cc3)n(C)c2)CC1	-1.8%
COC(=O)C1=C(c2ccccc2)c2ccccc2S(=O)(=O)N1CC(=O)Nc1cc(C)ccc1C	13.4%
N#Cc1ccc(CSc2nc3c(c(=O)[nH]2)CCCC3)cc1	0.1%
Cc1ccc(Nc2ncc(C(=O)N3CCN(c4ccc(F)cc4)CC3)c3ccccc23)cc1Cl	?
COc1ccc(NC(=O)c2cc3cc(C)ccc3[nH]2)cc1	-43.9%
COc1ccc(OC)c(CCNC(=O)CCn2c(=O)c3cccn3c3ccc(F)cc32)c1	-13.5%
CCCN1CCc2nc(N3CCN(C)CC3)ncc2C1	-9.8%
CCOc1ccc(NC(=O)c2c(NC(=O)c3ccccc3F)sc3c2CCC3)cc1	-7.5%
Further results
SMILES	miR-21 FLuc
CC(C)c1ccc(Nc2c(-c3ccc(N(C)C)cc3)nc3cnccn23)cc1	0.4%
CC(=O)c1c(C)oc2ccc(N(C(=O)Oc3ccccc3)S(=O)(=O)c3ccc(Cl)cc3)cc12	-0.6%
COc1ccc(-c2cc3c(=O)n(CC(=O)Nc4cc(C)ccc4C)ccn3n2)cc1	-35.4%
CCc1ccc(N2C(=O)CSC23C(=O)N(Cc2ccc(C)cc2)c2ccccc23)cc1 (stereo not drawn)	14.6%
COc1cccc(CNC(=O)C2CCCN(S(=O)(=O)c3ccc4c(ccn4C)c3)C2)c1OC (stereo not drawn)	8.6%
COC(=O)c1cc2oc(C)cc2n1Cc1c(C)cc(C)cc1C	-3.4%
CCc1cc2c(cc3c(=O)n(CC(=O)NCc4cccc(Cl)c4)nc(CC)n32)s1	-5.3%
CCOC(=O)c1ccccc1NC(=O)N(Cc1ccco1)C1CCN(C(C)=O)CC1	5.4%
CCOC(=O)c1c(C)[nH]c(C)c1S(=O)(=O)N1CCC(C(=O)NCc2ccc(OC)cc2)CC1	-0.5%
Cc1ccc(CN2C(=O)C(=O)c3cc(Br)cc(C)c32)cc1	?
CCCc1cnc2c(c1SCC(=O)Nc1c(C)cc(C)cc1C)c(=O)n(C)c(=O)n2C	-3.6%
CCn1cc2nc(SCC(=O)Nc3ccc(C)cc3C)n(Cc3ccc(C)cc3)c(=O)c2n1	26.3%
COc1ccc(C(=O)NCc2ccc3c(c2)CCN3C(C)=O)c(OC)c1	-8.2%
CC1(C)S[C@@H]2[C@H](NC(=O)COc3ccccc3)C(=O)N2C1C(=O)OCc1cc2ccccc2n1S(=O)(=O)c1ccccc1 (stereo partly drawn)	-3.4%
Cc1cccc(NC(=O)CCNS(=O)(=O)c2ccc3c(c2)CCCC(=O)N3)c1C	1.2%
COc1ccc(NC(=O)CSc2cn(CCNC(=O)c3ccc(OC)cc3)c3ccccc23)cc1	?
Cc1ccccc1CNC(=O)C(=O)NCC(c1cccs1)S(=O)(=O)c1cccs1 (stereo not drawn)	-5.7%
Cc1ccc(Nc2c(-c3ccc(N(C)C)cc3)nc3ccccn23)cc1	-55.3%
CSc1ccc(CCNC(=O)c2cnc3c(C)cccn3c2=O)cc1	-18.0%
C=CCc1ccccc1OCC(O)CN1CCN(c2ccccc2)CC1 (stereo not drawn)	1.8%
COc1ccc(C)cc1NC(=O)Cn1c(=O)ccc2cc(S(=O)(=O)N3CCCC3)ccc21	4.8%
Cc1ccccc1NC(=O)CCN1C(=O)c2ccccc2Sc2ncccc21	-4.3%
CCc1cccc(NC(=O)CCS(=O)(=O)c2ccc(C)cc2)c1	2.0%
COc1ccc(-c2cc(OC(=O)c3ccccc3)c3c(C)oc(C)c3c(=O)c2)cc1OC	-13.4%
CC1CCCN(Cc2c(O)ccc3c(=O)c(Oc4ccc(C(C)(C)C)cc4)c(C(F)(F)F)oc23)C1 (stereo not drawn)	2.2%

2 neighbouring records out of the list so far, for reference:
SMILES	miR-21 FLuc
CC(C)c1ccc(Nc2c(-c3ccc(N(C)C)cc3)nc3cnccn23)cc1	0.4%
CC(=O)c1c(C)oc2ccc(N(C(=O)Oc3ccccc3)S(=O)(=O)c3ccc(Cl)cc3)cc12	-0.6%

Other records follow:
SMILES	miR-21 FLuc
CCOC(=O)c1ccccc1NC(=O)c1cc2c(=O)oc3ccc(C)cc3c2s1	-2.4%
Cc1ccc(S(=O)(=O)n2nc(-c3ccco3)nc2NCc2ccc(N(C)C)cc2)cc1	-43.6%
COc1cc(NC(=O)Cn2c(-c3ccccc3)cc(C(C)=O)c2C)cc(OC)c1	13.3%
CCOc1ccccc1NC(=O)C(C)N(c1ccccc1)S(C)(=O)=O (stereo not drawn)	0.5%
O=C(Nc1cccc(C(F)(F)F)c1)c1cc(-c2ccc3c(c2)OCCO3)on1	-17.7%
Cc1sc2ncn(CC(=O)Nc3ccc(C(C)C)cc3)c(=O)c2c1S(=O)(=O)N1CCN(c2ncccn2)CC1	-4.4%
CC(C)CCNC(=O)c1ccc(NC(=O)N2CCCCc3ccccc32)cc1	-5.0%
Cc1oc(-c2cccc(Cl)c2)nc1CN1CCC(C(=O)NCCCN2CCN(c3ccc(F)cc3)CC2)CC1	-0.6%
COc1cccc(CNC(=O)NCc2noc3ccc(C)cc23)c1	-6.7%
CCCSc1ncc(Cl)c(C(=O)Nc2c(C(=O)Nc3ccc(C)cc3)oc3ccccc23)n1	-5.9%

Part of the list above, field by field.
Cc1sc2ncn(CC(=O)Nc3ccc(C(C)C)cc3)c(=O)c2c1S(=O)(=O)N1CCN(c2ncccn2)CC1
- miR-21 FLuc: -4.4%
CC(C)CCNC(=O)c1ccc(NC(=O)N2CCCCc3ccccc32)cc1
- miR-21 FLuc: -5.0%
Cc1oc(-c2cccc(Cl)c2)nc1CN1CCC(C(=O)NCCCN2CCN(c3ccc(F)cc3)CC2)CC1
- miR-21 FLuc: -0.6%
COc1cccc(CNC(=O)NCc2noc3ccc(C)cc23)c1
- miR-21 FLuc: -6.7%
